# VACV E9 pol inh – inhibitors of vaccinia virus processive DNA synthesis (E9 polymerase). normalized absorbance, % (test concentration not listed). in vitro processive DNA synthesis, absorbance read-out; stronger effect = lower value; some inactives read as strong as hits. 46,000 compounds, 0.94% hits. AID 493162;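 active means replicate mean up to 90% and picked by the depositor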;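 further: 100% = median of the test wells of a plate; 100 nL library stock went into each well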
# The depositor's hits bear a star.
canonical_smiles | VACV E9 pol inh
Cc1cc(C)n(-c2nc3ccccc3nc2N2CCN(S(=O)(=O)c3ccc(F)c(C)c3)CC2)n1 | 100
COc1ccc(/C(O)=C(/C#N)c2nc3ccccc3s2)cc1 | 98
CCC(C)c1ccccc1N=Cc1cccs1 (stereo unspecified) | 92
COc1ccc(CCNC(=O)c2csc3c2CCCC3)cc1OC | 85
C(=N\C(/N=C/c1ccccc1)c1ccccc1)/c1ccccc1 | 100
CC(C)(CC(=O)O)CC(=O)Nn1c(=S)[nH]c2ccccc2c1=O | 101
COC(Cn1c(-c2ccccc2)n[nH]c1=S)OC | 101
O=S(=O)(c1ccccc1)c1nc(N2CCCc3ccccc32)sc1Cl | 100
CCCN(C(=O)c1cc2cc3ccc(OC)cc3nc2o1)c1ccc(CC)cc1 | 102
CCOC(=O)c1cnc2ccc(F)cc2c1NCc1cccnc1 | 94
CC(C)Nc1ccc(-n2nc3ccccc3[n+]2[O-])cc1 | 100
Cc1ccc(N=C(C#N)C2=C(O)c3ccccc3C2=O)c(Cl)c1 | 99
CN(C)/C=N/n1cnc2sc3c(c2c1=O)CCCC3 | 112
CCCc1ccc(O)c(N)c1 | 100
CC1CN(CN2C(=O)C(=Nc3ccc4ccccc4c3)c3ccccc32)CC(C)O1 (stereo unspecified) | 101
COC(=O)c1cc(Cl)c(C(=O)OC)cc1Cl | 105
CC1CC(=O)N(c2cc(C(F)(F)F)cc(C(F)(F)F)c2)C1=O (stereo unspecified) | 97
CN1CCN(Cc2cc(Cl)c3cccnc3c2O)CC1 | 90
CCCNC(=O)C1CCN(C(=O)c2ccccc2Cl)CC1 | 104
O=c1c(Oc2ccccc2)coc2cc(O)ccc12 | 103
CCOC(=O)Cc1c(C)nc2c(-c3ccccc3)c(C(F)(F)F)nn2c1C | 100
O=C(COC(=O)c1ccc(O)cc1)NCc1ccccc1 | 108
O=C(CSc1nc2ccccc2c(=O)n1Cc1ccco1)c1ccccc1 | 101
CNC(=O)c1csc(Cc2c(Cl)sc3ccc(Cl)cc23)n1 | 94
CCOC(=O)c1ccc(CN(Cc2ccccc2C)S(=O)(=O)c2ccc3c(c2)OCCO3)cc1 | 98
O=C(c1noc2c1CCCC2)N1CCCCC1 | 97
CCOC(=O)CSc1nnc(NC(=O)C2CCCCC2)s1 | 102
CC(C)(C)c1ccc(-c2cc(NS(=O)(=O)c3ccccc3)c(C(N)=O)s2)cc1 | 67
Cc1ccn2cc(CNC(=O)c3ccccc3)nc2c1 | 98
Clc1ccc(COc2cccc3cccnc23)cn1 | 98

# Of the compounds above, two have a furan ring, fused or not.
canonical_smiles | VACV E9 pol inh
CCCN(C(=O)c1cc2cc3ccc(OC)cc3nc2o1)c1ccc(CC)cc1 | 102
O=C(CSc1nc2ccccc2c(=O)n1Cc1ccco1)c1ccccc1 | 101

# Continuation:
canonical_smiles | VACV E9 pol inh
CCc1ccccc1NC(=O)C(CC)Sc1nc2ccncc2[nH]1 (stereo unspecified) | 99
CCOC(=O)c1sc(NC(=O)c2cc(=O)c3ccccc3o2)cc1C | 98
Cc1ccc(CN2C(=O)C3CCCN3c3ccc(C#N)cc32)cc1 (stereo unspecified) | 98
CC(C)(C)OC(=O)N1CCN(C(=O)Nc2ccc(C(=O)O)cc2)CC1 | 102
NC(=O)c1sc(-c2ccsc2)cc1NC(=O)/C=C/c1ccsc1 | 98
CC(Cc1ccc(O)cc1)NCC(O)c1cc(O)cc(O)c1 (stereo unspecified) | 100
Fc1cccc(F)c1CNCC1NCCc2ccccc21 (stereo unspecified) | 100
COCC(C)Nc1ncnc2c1c(-c1ccccc1)cn2-c1ccc(C)c(Cl)c1 (stereo unspecified) | 101
CC(C)NC(=S)n1cc(C(=O)c2cc(Cl)cc(Cl)c2O)cn1 | 101
OC(CNC1CCCCC1)CN1c2ccccc2Sc2ccccc21 (stereo unspecified) | 100
COc1cccc(OC(=O)c2cc3ccccc3oc2=O)c1 | 96
Cc1cccn2cc(CNC(=O)c3ccccc3)nc12 | 102
O=C(NCc1ccccc1)C1CCCN(C(=O)N2CCOc3ccccc32)C1 (stereo unspecified) | 99
CC(=O)Nc1ccc2c(c1)sc(=NC(=O)c1ccc3ncsc3c1)n2C | 98
O=C(O)/C=C/C(=O)c1ccc(F)cc1 | 86
Cc1ccc(CS(=O)(=O)CCC(=O)NC2CC2)cc1 | 112
COc1ccc2c(=O)c(-c3cscn3)c(C(F)(F)F)oc2c1 | 88
O=c1c(Cl)c(O)c2ccccc2n1Cc1ccccc1 | 88
Cn1cccc1Cc1nnc(SCC(=O)N2CCc3ccccc32)n1CCc1ccccc1 | 92
C=CCNc1sc(C(=O)c2ccc(Cl)cc2)c(N)c1C#N | 98
O=C(COC(=O)c1cccc2ccccc12)Nc1ccccc1Cl | 99
Cc1cccn2cc(-c3cccc(NS(=O)(=O)c4ccc(Cl)cc4)c3)nc12 | 100
CN1CCC(N(C)C(=O)/C(=C/c2ccc(Cl)cc2)c2ccc(F)cc2)CC1 | 107
CC1CCc2c(C(=O)Nc3nccs3)csc2C1 (stereo unspecified) | 98
O=P(CN(Cc1cccs1)CC1CCCO1)(c1ccccc1)c1ccccc1 (stereo unspecified) | 99
O=c1nc(Nc2ccccc2)[nH]c(=O)[nH]1 | 101
CC1(C)CC(OC(=O)c2ccccc2C(=O)OC2CC(C)(C)NC(C)(C)C2)CC(C)(C)N1 | 101
CCc1nc2ccccc2c(N)c1C | 87
CCOc1ccc(OCC)c(S(=O)(=O)N2CCN(c3ccccc3)CC2)c1 | 74
NC(=O)Nc1nc2ccccc2[nH]c1=O | 100
Cc1ccnc(N2C(=O)OC(C)(C)C2(C)O)c1 (stereo unspecified) | 100
COc1cc2c(cc1OC)C1C(C(=O)NC3CCCC(C)C3C)c3ccccc3C(=O)N1CC2 (stereo unspecified) | 105
O=C(Nc1ccc(F)cc1)c1cc(N2CCN(c3ccc(F)cc3)CC2)nc2ccccc12 | 103
Cc1ccc2n1CCn1cc(-c3ccccc3)cc1-2 | 102
CCOc1ccc(Br)cc1C1C(C(=O)OC)=C(N)Oc2cc(N(C)C)ccc21 (stereo unspecified) | 100
O=C(O)c1sccc1-n1cccc1 | 98
O=C(O)CCc1ccc(-c2cccs2)n1-c1ccccc1C(F)(F)F | 100
CC1(C)C2CCC1(C)C(NC(=O)CC[N+](C)(C)Cc1ccccc1)C2 (stereo unspecified) | 100
Cc1ccc2[nH]c3c(c2c1)C[N+](C)(Cc1ccccc1)CC3 (stereo unspecified) | 88
O=C(c1cccc(C(F)(F)F)c1)N1CC(=O)N(CCc2ccccc2)C(=O)C1 | 96
CCC(Sc1nc2c(sc3ccccc32)c(=O)n1CCc1ccccc1)C(=O)N1CCOCC1 (stereo unspecified) | 97
CC(=O)Nc1cccc(C2=Nc3ccccc3SC(c3ccccc3)C2)c1 (stereo unspecified) | 107
O=C(CSc1ccccc1Cl)Nc1ccc(N2CCOCC2)cc1 | 103
COc1ccc(Nc2nc3c(C)cccn3c(=O)c2C=NCc2ccccc2)cc1 | 100
O=C(O)CN1C(=O)c2cccc3cccc1c23 | 99
Clc1ccccc1-c1ncc2ccccn12 | 101
Nc1nc(C2COc3ccccc3O2)ncc1S(=O)(=O)c1ccccc1 (stereo unspecified) | 99
CC1(C(=O)c2ccccc2)C2c3cc(Br)ccc3OC(=O)C21C(=O)N1CCCCC1 (stereo unspecified) | 101
NS(=O)(=O)c1ccc(CCNC(=O)c2ccc(Cn3c(=O)[nH]c4ccccc4c3=O)cc2)cc1 | 99
CC1(C)N=C(c2ccccc2)C(=O)N1CC(=O)Nc1ccccc1 | 101
CCN(CC)CCCNc1nc2ccccc2[nH]1 | 105
NS(=O)(=O)c1ccc2c3c(cccc13)C(=O)N2 | 96
O=C(O)c1ccccc1-c1c2cc(Br)c(=O)cc-2oc2[c]([Hg])c(O)c(Br)cc12 | 18*
NC1=NC(=O)C(CC(=O)Nc2ccc(C(F)(F)F)cc2)S1 (stereo unspecified) | 101
O=C(/C=C/c1ccccc1)Nc1ccc(Oc2ccc(F)cc2F)nc1 | 103
CCCCN(C)C(=S)Nc1ccc2nc3n(c(=O)c2c1)CCCCC3 | 101
COC(=O)CN(c1ccc(C(C)C)cc1)S(=O)(=O)c1c(C)[nH]c(=O)[nH]c1=O | 93
COc1ccc2c(C(=O)O)cc(=O)[nH]c2c1 | 100
COc1ccc(NC(=O)CCCN2C(=O)/C(=C\c3ccco3)SC2=S)cc1 | 100
Nc1ccc(S(=O)(=O)Nc2ccnn2-c2ccccc2)cc1 | 100

# Going on with the list.
Compound | VACV E9 pol inh
COc1ccc(S(=O)(=O)NCCC23CC4CC(CC(C4)C2)C3)cc1 | 100
COc1cc2c(cc1OC)C(COc1ccc(F)cc1)N(C(=S)Nc1cccc(C)c1C)CC2 (stereo unspecified) | 106
Clc1ccc(C2=NN=C(N3CCCC3)SC2)cc1 | 100
O=C(C1=C(O)C(=O)N(Cc2cccnc2)C1c1ccncc1)c1cccs1 (stereo unspecified) | 102
O=C(O)c1cncc(C(=O)O)c1 | 98
O=c1c2c3c(sc2n(Cc2cccc(Cl)c2)c(=O)n1-c1ccccc1)CCC3 | 102
O=C(O)CCC(=O)Oc1ccccc1 | 100
O=C(O)c1cccn1-c1ccc(Br)cc1 | 97
CCOC(=O)C1CCN(C(=O)c2sc3cc(F)ccc3c2Cl)CC1 | 101
CC(Cc1ccccc1)N=c1nc2c(ncn2C)c(N)n1C (stereo unspecified) | 91
CC(=O)NC(NCc1ccccc1)(C(F)(F)F)C(F)(F)F | 105
N#Cc1c(Sc2ccccc2)nc2sccn12 | 101
COC(=O)c1ccc(Nc2ncnc3ccccc23)cc1 | 94
N#Cc1sc2c(c1OC(=O)c1cccs1)c(=O)n(-c1ccccc1)c(=S)n2-c1ccccc1 | 103
CCOC(=O)c1[nH]cnc1C(=O)Nc1ccccc1 | 106
CC(C)N(C(=O)CSc1nncn1C)c1ccccc1 | 97
CC(C)c1ccc(OC(=O)C(C)N2C(=O)c3ccccc3C2=O)cc1 (stereo unspecified) | 100
CCN(Cc1ccccc1)C(=O)CSc1nc2nc(C)c(Cc3ccccc3Cl)c(C)n2n1 | 103
C(=Nc1ccc(Nc2ccccc2)cc1)c1ccc2ncccc2c1 | 102
CCCN(CCC)S(=O)(=O)c1ccc2c(c1)oc(=O)n2CC(=O)OCC | 102
Cn1c(=O)c2cc(C(=O)NC3CCCCCC3)sc2c2ccc(Cl)cc21 | 95
C1CN(C23CC4CC(CC(C4)C2)C3)CCN1 | 100
CC(NC(=O)c1ccc(C(F)(F)F)cc1)C(c1ccccc1)N1CCOCC1 (stereo unspecified) | 107
COc1cc2ncnc(NCCCN3CCOCC3)c2cc1OC | 86
Cn1c(C(=O)N2CCC(C(=O)NCc3ccccc3)CC2)cc2sccc21 | 105
O=C1OC(Cc2ccccc2Cl)c2cc[nH]c(=O)c21 (stereo unspecified) | 101
OC(CN1CCSCC1)C(F)(F)F (stereo unspecified) | 119
Cc1ccccc1-c1nsc(SCC(=O)NC2CCCCC2)n1 | 103
CNC(=O)c1c(N)sc2c1CCCCC2 | 101
Cc1cc2cc(CNC(=O)c3ccco3)ccc2[nH]1 | 101
O=C(CN(C(=O)c1ccccc1)C1CCCCC1)Nc1nc(-c2ccccc2)cs1 | 100
COC(=O)CC1(O)C(=O)C=C(c2ccc(C)cc2)N1c1ccccc1OC (stereo unspecified) | 101
CC1=C(C(=O)N(C)C)C(c2ccc(Cl)cc2)NC(=O)N1 (stereo unspecified) | 98
Clc1ccc(/C=C/C2=Nc3cccc4cccc(c34)N2)cc1 | 100
Cc1cc2cc(CNC(=O)c3ccc4c(c3)OCO4)ccc2[nH]1 | 101
O=C(COC(=O)c1ccccc1)NC1CCCC1 | 94
O=c1[nH]nc(N2CCOCC2)c(=O)[nH]1 | 100
O=c1[nH]c(CCl)nc2scc(-c3ccccc3)c12 | 95
CC(C)N(C)c1ncnc2sc3c(c12)CCC3 | 100
CN1CCC(NS(=O)(=O)c2ccc(I)cc2)CC1 | 88
Cn1c(=O)c(/C(N)=N/O)cn(-c2ccccc2)c1=O | 91
O=c1[nH]nc(NCc2nc3ncccc3[nH]2)c2ccccc12 | 105
Cc1ccc(-c2csc(N3C(=O)CN=C3SCc3ccc(Cl)cc3)n2)cc1 | 100
O=C(NC1CCCC1)c1ccc(CSCc2cccc(Cl)c2)o1 | 80
O=C(c1ccccc1)N1CCN(c2nc(-c3ccccc3)c3cc(Br)ccc3n2)CC1 | 92
Cc1cc(NC(=O)CC(C)C)nc2c1c(=O)oc1ccccc12 | 99
O=C(O)/C=C/c1cccc(Br)c1 | 97
CCNc1nc(OCCO)nc(N(C)C)n1 | 99
O=c1c2c3c(sc2ncn1-n1cccc1)CCCC3 | 103
Cc1nn(CCC#N)c2nc(C(F)(F)F)[nH]c(=O)c12 | 102
CCn1c(CCNC(=O)C(C)(C)C)nc2ccccc21 | 102
Cc1c(Cl)cccc1NC(=O)CC(NCc1ccccn1)C(=O)O (stereo unspecified) | 100

# Grouped by structure, those above with an NH in an aromatic ring
Compound | VACV E9 pol inh
CC(C)(CC(=O)O)CC(=O)Nn1c(=S)[nH]c2ccccc2c1=O | 101
COC(Cn1c(-c2ccccc2)n[nH]c1=S)OC | 101
CCc1ccccc1NC(=O)C(CC)Sc1nc2ccncc2[nH]1 (stereo unspecified) | 99
O=c1nc(Nc2ccccc2)[nH]c(=O)[nH]1 | 101
NC(=O)Nc1nc2ccccc2[nH]c1=O | 100
Cc1ccc2[nH]c3c(c2c1)C[N+](C)(Cc1ccccc1)CC3 (stereo unspecified) | 88
NS(=O)(=O)c1ccc(CCNC(=O)c2ccc(Cn3c(=O)[nH]c4ccccc4c3=O)cc2)cc1 | 99
CCN(CC)CCCNc1nc2ccccc2[nH]1 | 105
COC(=O)CN(c1ccc(C(C)C)cc1)S(=O)(=O)c1c(C)[nH]c(=O)[nH]c1=O | 93
COc1ccc2c(C(=O)O)cc(=O)[nH]c2c1 | 100
CCOC(=O)c1[nH]cnc1C(=O)Nc1ccccc1 | 106
O=C1OC(Cc2ccccc2Cl)c2cc[nH]c(=O)c21 (stereo unspecified) | 101
Cc1cc2cc(CNC(=O)c3ccco3)ccc2[nH]1 | 101
Cc1cc2cc(CNC(=O)c3ccc4c(c3)OCO4)ccc2[nH]1 | 101
O=c1[nH]nc(N2CCOCC2)c(=O)[nH]1 | 100
O=c1[nH]c(CCl)nc2scc(-c3ccccc3)c12 | 95
O=c1[nH]nc(NCc2nc3ncccc3[nH]2)c2ccccc12 | 105
Cc1nn(CCC#N)c2nc(C(F)(F)F)[nH]c(=O)c12 | 102

# An excerpt; count on the stated rates, not on these rows.
